# Screening results: PubChem, National Center for Advancing Translational Sciences (NCATS)
# ClpP mod: qHTS Assay for Activators of ClpP; ATP-dependent Clp protease proteolytic subunit (Bacillus subtilis (strain 168)), P80244; purified B. subtilis ClpP, FRET peptide cleavage, 20 min; Potency, µM (titrated, usually from 57.5 µM), for the others: at the top dose activity change, negative = active; actives 1.9% (n = 340,000); AID 651965, 2013; active = well fitted falling curve with a large enough effect; inconclusive = small, poorly fitted or top-dose-only effect; inactive = no such curve, though single readings can be large or run the other way; also: potency is read from the fitted curve at half-maximal effect; the source files actives as falling curves though it sought activators and does not explain the sign; nearly all actives have a fitted effect of over 65% in size; many hits overshoot -100%
# Target sequence (P80244 whole entry, looked up): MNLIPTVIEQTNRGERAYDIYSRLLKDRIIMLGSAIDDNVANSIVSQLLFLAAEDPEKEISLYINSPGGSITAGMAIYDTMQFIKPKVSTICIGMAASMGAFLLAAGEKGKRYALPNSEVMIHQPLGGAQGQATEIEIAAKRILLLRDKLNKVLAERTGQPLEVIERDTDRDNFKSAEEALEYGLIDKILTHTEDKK
#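 Buffer: 100 mM Tris/HCl pH8, 100 mM KCl, 0.05% low protease BSA, 2.5% glycerol, 0.01% Tween-20. ClpP 10 microg/mL final; 20 min RT; delta FRET normalized to ADEP and DMSO controls.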
# TRPV1 PAM: human TRPV1 potentiation. AID 540277. actives 0.02% (n = 320,000). potentiation, % at 8.33 µM. Q8NER1. TRPV1-expressing cells, Fluo-8 calcium influx, capsaicin EC20 potentiation; host cell line not named in the record; control for the full effect not named in the record; active means potentiation above 80%; inconclusive means 30% to 80%; inactive means below 30%; also: 0% is about no effect
#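 Cells expressing TRPV1 were dye-loaded with Fluo-8 and read kinetically: 10 s baseline, 3 min after compound (agonist portion), then 2 min after EC20 capsaicin (allosteric enhancer portion). Calcium-bound dye fluorescence at 480/520 nm.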
# TRPML1 agonist: agonists of human TRPML1 channel; TRPML1-expressing cells, Ca2+ dye fluorescence, FDSS; host cell line not named in the record; reference of the full effect not given here; activation, % (concentration not given with the values); actives 0.12% (n = 410,000); AID 624414; in the data active = activation above about 50%; inconclusive = about 30% to 50%; inactive = below about 30%; also: 0% is about no effect; the text of the record puts the active cut at 80%
# Target sequence (Q9GZU1 whole entry, looked up): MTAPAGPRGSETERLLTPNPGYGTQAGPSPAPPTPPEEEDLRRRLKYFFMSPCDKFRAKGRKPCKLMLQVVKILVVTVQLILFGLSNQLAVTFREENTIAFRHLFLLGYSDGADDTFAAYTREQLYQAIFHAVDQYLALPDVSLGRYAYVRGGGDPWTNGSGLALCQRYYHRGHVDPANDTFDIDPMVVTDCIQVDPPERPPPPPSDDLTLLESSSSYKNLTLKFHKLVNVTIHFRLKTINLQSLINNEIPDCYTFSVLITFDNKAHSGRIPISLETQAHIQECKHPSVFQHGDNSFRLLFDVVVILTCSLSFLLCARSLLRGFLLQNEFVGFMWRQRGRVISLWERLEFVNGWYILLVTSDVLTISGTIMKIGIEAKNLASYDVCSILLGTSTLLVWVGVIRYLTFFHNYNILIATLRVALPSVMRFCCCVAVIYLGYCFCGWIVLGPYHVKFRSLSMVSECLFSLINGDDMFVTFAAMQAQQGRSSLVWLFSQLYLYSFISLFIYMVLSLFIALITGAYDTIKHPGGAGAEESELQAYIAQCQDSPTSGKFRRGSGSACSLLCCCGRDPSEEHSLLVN
#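 Cells: TRPML1-DL, 1X Tet inducer, ~16 h at 37 degrees C/5% CO2. Dye: ABD Ca8 no-wash + quencher, 45-90 min RT. Read: 10 s baseline, compound add, 110 s agonist phase; 54-4 EC80 (4uM final), 110 s antagonist phase.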
# Menin MLL FP FL: displaces fluorescein MLL peptide from human menin | Fluorescence polarization, fluorescein-MLL peptide displacement from menin | FP activity change, % at 61.4 µM | 290,000 tested, under 10 active | AID 1766; inconclusive = falling polarisation curve, or a change in total fluorescence; inactive = total fluorescence flat and polarisation flat or rising; no compound was filed as active; the % refers to the polarisation; negative = inhibition;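 also: % of control where 0% means no effect; inhibitors lower the polarisation; unlabelled MLL peptide was the positive control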
# PINK1 expr mod: modulators of PINK1 expression; PINK1 immunofluorescence, high-content cytometry, 24 h; Potency, µM (series often up to 76.6 µM), inactives show at the highest dose activation (PINK1 increase), actives largely listed as activators; actives 0.2% (n = 410,000); AID 624263; active = well fitted activation curve with a large enough effect; inconclusive = small, poorly fitted or top-dose-only effect; inactive = flat fitted curve, though single readings scatter; cell line not stated here;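 also: potency is read from the fitted curve at half-maximal effect; % of control where 0% means no effect; nearly all actives have a fitted effect of over 65% in size; a mitochondrial uncoupler was the plate control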
#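 Decision-based qHTS: stable cells, 24 h exposure to five compound concentrations, CCCP as control. Fixed cells stained for PINK1 plus nuclear, mitochondrial and cell markers, cytometer read.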
# TRPML1 inh: inhibitors of human TRPML1 channel; Q9GZU1; TRPML1-inducible cells, Ca2+ dye fluorescence, FDSS; hits give low values; inhibition of EC80 agonist-evoked calcium signal; actives 0.02% (n = 390,000); activity change, negative = inhibition, % (no concentration beside the values); AID 624415; in the data active means activity change below about -50%; inconclusive means about -30% to -50%; inactive means above about -30%;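 also: stimulus is agonist 54-4 at its EC80 concentration; % is scaled to controls: 0 for no effect and ±100 for the full control effect; compound concentration not given in the record; the text of the record puts the active cut at -80%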
#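 TRPML1-DL cells, Tet-induced overnight (~16 h, 37 °C) at 1,500 cells/well, were loaded with Ca8 no-wash dye plus quencher for 45-90 min at room temperature. Compounds were pinned during FDSS kinetic reading; agonist 54-4 at EC80 (4 uM final) then added.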
# Sfp inh: inhibitors of Bacillus subtilis Sfp phosphopantetheinyl transferase. Q9F4F7. Biochemical Sfp PPTase activity, qHTS. Potency, µM, for the others: max response, negative = inhibition, usual class: inhibitors. actives 3.5% (n = 310,000); active = well fitted inhibition curve with a large enough effect; inconclusive = small, poorly fitted or top-dose-only effect, or another doubt; inactive = no such curve, though single readings can be large or run the other way;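 also: the enzyme is Sfp with the accession as filed and its product quenches rhodamine fluorescence; potency is read from the fitted curve at half-maximal effect; 0% = enzyme reaction without inhibitor and -100% = no enzyme wells; top concentration of the series not given in the record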
#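 Fluorescence-quenching assay: 15 nM Sfp-PPTase preincubated 15 min at room temperature with compound, then 5 uM rhodamine-CoA and 12.5 uM BHQ-2-labelled YbbR peptide added. Fluorescence (ex 525/em 598 nm) read at start and after 30 min; difference gives rate.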
# Active calls of the source: *; ? = inconclusive; · = not tested or not shown; & = joins results of further samples.
SMILES,ClpP mod,TRPV1 PAM,TRPML1 agonist,Menin MLL FP FL,PINK1 expr mod,TRPML1 inh,Sfp inh
CCOC(=O)c1c(NC(=O)CSc2nncs2)sc(C)c1C,0.9%,-3.9,-0.9,1.3,2.5%,8.8,-8.0%
O=C(COC(=O)c1ccccc1)NCC1COc2ccccc2O1 (stereo not given),-2.4%,·,-0.6,·,-0.8%,9.9,·
Cc1cc(Br)ccc1OCc1nc(-c2cccnc2)no1,0.2%,-3.4,1.8,-1.1,3.4%,10.5,13.2%
CCc1ccc2c(c1)C(c1ccncc1)=NNC(c1ccccc1)=N2,-1.3%,-5.1,1.5,0.1,-1.6%,-7.1,-2.6%
Cc1ccc(NC(=O)COC(=O)[C@@H]2CC(O)CN2S(=O)(=O)c2ccc3c(c2)OCCO3)cc1 (stereo not given in full),-2.4%,·,1.0,·,0.4%,25.6,·
O=C(NN=Cc1cccc([N+](=O)[O-])c1)c1cccc2ccccc12,-1.9%,·,1.2,·,6.0%,-10.1,·
CC(=O)Nc1cc(=O)c2cccnc2[nH]1,·,·,0.3,·,1.6%,-1.1,·
c1ccc(-c2csc(=Nc3cccnc3)n2CC2CCCO2)cc1 (stereo not given),0.9%,-5.5,2.3,7.2,7.0%,-24.9,-2.8%
C[C@@]12C(=O)N(Cc3ccccc3)CC(=O)N1[C@H]1c3cc(Cl)ccc3OC[C@@H]1[C@@H]2c1ccccc1,-1.5%,8.5,-0.1,·,1.4%,56.3,·
Cc1cc(C)n(-c2ccc(C(=O)Nc3ccc4c(c3)OCO4)cc2)n1,-6.6%,1.2,-0.7,-1.0,-0.5%,-29.4,9.1%
COc1ccc(C)cc1NC(=O)C(NCC1CCCO1)c1ccccc1 (stereo not given),-8.0%,-3.6,0.0,1.8,0.4%,17.7,-0.5%
NC(CSC1(c2ccccc2)c2ccccc2-c2ccccc21)C(=O)O (stereo not given),-2.0%,·,1.3,·,5.2%,-9.7,·
Cc1ccc(OCC(=O)NNC(=O)c2cc3ccccc3o2)cc1,-3.9%,·,-0.5,-0.3,0.5%,57.2,7.9%
COc1cccc(OC)c1NC(=O)Cn1nc(-c2ccc3c(c2)OCCO3)ccc1=O,·,1.3,0.3,0.8,1.7%,-5.4,11.0%
CC1CCCN(C2=C(NS(=O)(=O)c3ccc(Br)cc3)C(=O)c3ccccc3C2=O)C1 (stereo not given),·,-5.3,5.3,-2.4,11.1%,-17.3,9.9%
O=C(c1ccco1)N1CCN(S(=O)(=O)/C=C/c2ccccc2)CC1,·,5.6,-0.9,0.4,0.5%,4.9,-7.8%
CC(=O)Nc1ccc(NC(C)=O)s1,-1.1%,4.6,-0.2,1.4,-0.8%,-1.1,-11.1%
CSCCC(NC(=O)c1ccco1)C(=O)NCC1CCCCC1 (stereo not given),-2.8%,-11.2,2.8,·,-0.2%,-3.5,·
CCN(C(=O)COC(=O)CSc1ccccc1)c1c(N)n(Cc2ccccc2)c(=O)[nH]c1=O,0.6%,14.2,-0.2,·,-0.2%,8.1,·
COc1ccc(CNC(=O)CCCN2C(=O)CSc3c2c(C)nn3-c2ccccc2)cc1,-0.5%,·,-0.6,·,5.3%,6.6,·
CNc1ccc2ncc(-c3ccccc3C(C)=O)n2n1,-4.7%,·,-0.4,·,-0.7%,16.2,·
O=C(Nc1cccc2c1C(=O)NC2=O)c1cccnc1Cl,?,2.5,-0.6,-5.0,-0.1%,3.5,8.9%
COc1ccc(C(=O)CC(=O)C(=O)Nc2cccc(C(C)=O)c2)cc1,·,?,0.3,3.4,3.3%,-4.0,-3.4%
O=C1OCCOC2CCCc3oc(-c4ccccc4)c1c32 (stereo not given),5.1%,·,-0.6,·,0.9%,·,·
CC(=O)N1c2ccc(S(=O)(=O)N3CCC(C(=O)Nc4cccc(Cl)c4)CC3)cc2CC1C (stereo not given),0.7%,4.2,3.6,-0.8,1.7%,0.8,9.2%
CC(=O)c1ccc(-c2cccc(-c3cc(=O)oc4ccc(C(C)(C)C)cc34)c2)cc1,-7.0%,·,-0.7,-4.8,4.8%,-6.7,-11.0%
O=C(Cn1cnc2c(nnn2-c2cccc(F)c2)c1=O)Nc1ccc2c(c1)OCCO2,0.7%,-1.3,0.5,-2.3,6.6%,35.1,-11.4%
O=C(NCc1ccc2c(c1)OCO2)c1ccc(CSCc2ccc(Cl)cc2)o1,-6.4%,-1.4,3.0,0.3,4.1%,14.0,-1.7%
CCn1c2ccccc2c2cc(NC(=O)CSc3nnc(-c4ccccc4)o3)ccc21,-5.8%,5.7,2.8,2.4,8.8%,3.0,0.5%
CCCCOCc1cc(CN2CCN(c3cccc(Cl)c3)CC2)c(O)c2ncccc12,-3.3%,·,0.1,·,13.8%,9.3,·
COc1ccc(Cl)cc1Cn1c(C)c(C(=O)NCc2cccc([N+](=O)[O-])c2)sc1=O,-1.0%,·,-0.1,·,-1.1%,·,·
O=C(c1ccccc1)N1CCC(O)(c2ccc3c(c2)OCO3)CC1,1.2%,-12.9,-0.4,3.9,2.3%,-8.6,-11.2%
O=C(NC(=O)c1ccccc1)OCCN1C(=O)c2ccccc2C1=O,·,8.2,0.3,4.4,-1.0%,-26.3,3.7%
O=[N+]([O-])c1ccc(Nc2ccc(Cl)cc2)nc1,·,-2.3,1.5,-4.1,24.0%,60.1,16.1%
COc1ccc2c3c(cccc13)N(C)N=C2C,-7.1%,-2.2,0.0,?,2.7%,26.0,-14.7%
Cc1ccc(NC(=O)c2sccc2-n2cccc2)c(Cl)c1,0.5%,-11.7,1.1,-3.0,12.9%,?,?
CCN1CCN(c2ncc3c(n2)CCN(Cc2sccc2C)C3)CC1,-9.0%,·,-0.1,·,5.3%,13.6,·
CC1(C)COC(Cn2c3ccccc3c3ccccc32)O1 (stereo not given),·,-4.6,0.7,-0.6,15.7%,-4.0,8.8%
O=C(NCCO)/C(=C\c1cccc([N+](=O)[O-])c1)NC(=O)c1cccs1,-0.9%,·,-0.2,·,-1.2%,15.2,·
O=C(CSc1ncn(-c2ccccc2)n1)N1CCc2ccccc21,2.2%,-5.3,-0.7,-5.4,-2.5%,6.3,?
O=C(CN(c1ccc(Cl)c(C(F)(F)F)c1)S(=O)(=O)c1ccccc1)Nc1cccnc1,-8.7%,·,-1.1,·,0.1%,1.6,·
COC1=NC2=NCCN2C(OC)=N1,·,·,1.8,·,0.9%,14.6,·
O=C(CSc1nnc(COc2ccc(Cl)cc2)o1)N1CCN(c2ccccc2)CC1,-0.7%,11.1,1.2,0.7,3.8%,19.2,14.1%
C/C(=N\Nc1ncc(Cl)cc1Cl)c1ccccn1,·,3.8,15.4,-20.4,0.2%,-5.6,-23.3%
O=C(Oc1cccc2cccnc12)c1cccs1,-6.8%,4.0,-1.3,2.4,-0.7%,-10.2,-21.4%
Cc1ccccc1NC(=O)Cn1c(=O)n(CCC(=O)N2CCc3ccccc3C2)c(=O)c2ccccc21,-21.3%,·,-1.0,·,-0.1%,6.9,·
Cc1noc(C)c1CSCC(=O)Nc1cc(C(F)(F)F)ccc1N1CCOCC1,?,-11.1,0.6,·,-2.8%,11.3,·
NC(=O)c1ccc(C(=O)N/N=C(/Cc2ccccc2)c2ccccc2)cc1,1.0%,-13.9,-0.7,-1.2,-1.4%,2.0,12.7%
COc1cccc(-c2nnn(CCC(=O)O)n2)c1,-0.3%,12.6,-0.2,5.1,0.2%,7.3,17.3%
Cc1ccc(CNC(=O)C2CCCN2C(=O)Nc2cccc(Cl)c2)cc1 (stereo not given),0.2%,-13.9,0.1,-3.1,2.4%,2.3,1.4%
Fc1ccc(/C=N\Nc2cccc(F)c2)cc1,·,-9.6,0.0,-1.5,0.9%,26.0,-2.6%
C/C=C/C(O)c1ccc2ccccc2c1 (stereo not given),·,-2.3,0.8,2.8&0.3,·,-11.2,3.8%&-0.3%
Cc1ccc(C(=O)N/C(=C/c2cccs2)C(=O)NCCCn2ccnc2)cc1,0.8%,18.4,-0.2,4.1,-2.7%,3.9,8.4%
CCCCOc1ccc(C2C(=O)N(C3CCCCC3)CC(=O)N2CCCC)cc1 (stereo not given),-0.3%,·,1.8,·,0.7%,-3.4,·
O=S1(=O)CC(N2CCC(Cc3ccccc3)CC2)CN1C1CCCCC1 (stereo not given),0.3%,·,-0.5,·,0.4%,·,·
Cc1ccc(NC(=O)CCCn2c(=S)[nH]c3ccsc3c2=O)cc1C,-3.2%,-3.9,0.7,-0.9,-0.9%,22.0,11.2%
O=C(CN1CCC(NC(=O)Cc2ccccc2)CC1)Nc1ccccc1Br,-0.1%,7.3,2.2,4.3,-0.7%,26.9,-1.0%
O=C(NC(=S)NCCCN1CCOCC1)c1cccc2ccccc12,?,0.2,-0.8,2.8,0.2%,3.6,-7.0%
Cc1ccc(NC(=O)CSc2nc3n[nH]c(C)c3c(=N)n2-c2ccccc2C)cc1C,46.9%,·,1.1,·,7.9%,-1.0,·
COc1ccc(N2CCN(C(=S)Nc3cccc(OC)c3)CC2)cc1,·,-12.8,0.0,3.1,0.2%,-3.7,8.1%

# Single records, from the list above. Values in the order: ClpP mod	TRPV1 PAM	TRPML1 agonist	Menin MLL FP FL	PINK1 expr mod	TRPML1 inh	Sfp inh
# Results for `COc1cccc(-c2nnn(CCC(=O)O)n2)c1` : -0.3%	12.6	-0.2	5.1	0.2%	7.3	17.3%
# Results for `Cc1ccc(CNC(=O)C2CCCN2C(=O)Nc2cccc(Cl)c2)cc1` (stereo not given) : 0.2%	-13.9	0.1	-3.1	2.4%	2.3	1.4%

# Later entries
SMILES,ClpP mod,TRPV1 PAM,TRPML1 agonist,Menin MLL FP FL,PINK1 expr mod,TRPML1 inh,Sfp inh
Cc1ccc(NC(=O)c2cc3c([nH]c2=O)CC(c2ccccc2)CC3=O)cc1 (stereo not given),4.3%,·,-0.7,·,9.0%,·,·
COc1ccc(NC(=O)Nc2ccccc2F)c(C)c1,·,10.0,0.0,-1.5,3.4%,0.3,10.6%
CC(NC(=O)/C(=C/c1cccc([N+](=O)[O-])c1)NC(=O)c1ccco1)C(=O)O (stereo not given),-1.8%,7.9,-1.2,-0.6,1.8%,4.8,-7.6%
COc1ccc(O)c(/C=N/NC(=O)c2c(C)nnn2-c2nonc2N)c1,·,-4.3,0.4,0.6,0.4%,-0.2,-16.8%
Cc1cc(NC(=O)c2c(-c3c(F)cccc3Cl)noc2C)no1,1.8%,12.8,-0.4,-0.7,3.0%,20.3,20.0%
